Screening data from PubChem BioAssay.
NS1 inh = influenza NS1 inhibition | S. cerevisiae slowed by influenza A NS1, growth recovery by OD600 | Potency, µM (highest dose often 46.1 µM), for the others: at the highest dose activity, positive = more growth | actives 0.4% (n = 270,000); active means well fitted rising curve with a large enough effect; inconclusive means small, poorly fitted or top-dose-only effect; inactive means no such curve, though single readings can be large or run the other way; also: nearly all actives have a fitted effect of over 50% in size
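OD600 was taken as the measure of yeast growth restored by compound in an NS1-expressing S. cerevisiae strain. Cells had been washed out of glucose medium and diluted 1:100 into galactose -URA medium, pH 6.0.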
StopGo reporter = lowers the luciferase signal of an FMDV 2A StopGo reporter. AID 1159524. human cells with a luciferase reporter of 2A StopGo recoding; control for the full effect not named in the record. Potency, µM (doses to about 57.9 µM), for the others: top-dose signal change, negative = less light. actives 1.2% (n = 410,000); active = well fitted falling curve with a large enough effect; inconclusive = small, poorly fitted or top-dose-only effect; inactive = no such curve, though single readings can be large or run the other way; tested in HEK293T cells; also: % is scaled to controls: 0 for no effect and ±100 for the full control effect; nearly all actives have a fitted effect of over 45% in size; luciferase light after 4 h
Cruzain noTriton = inhibitors of Trypanosoma cruzi cruzain without detergent; P25779; purified cruzain, Z-FR-AMC fluorescence, no detergent; Potency, µM, without a hit: max response, negative = inhibition, most hits filed as inhibitors; actives 2.3% (n = 200,000); AID 1476;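 also: plate controls were enzyme without inhibitor for no effect and buffer without enzyme for full effect; nearly all actives have a fitted effect of over 40% in size; top concentration of the series not given in the record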
Target sequence (P25779 123-467 limits assumed): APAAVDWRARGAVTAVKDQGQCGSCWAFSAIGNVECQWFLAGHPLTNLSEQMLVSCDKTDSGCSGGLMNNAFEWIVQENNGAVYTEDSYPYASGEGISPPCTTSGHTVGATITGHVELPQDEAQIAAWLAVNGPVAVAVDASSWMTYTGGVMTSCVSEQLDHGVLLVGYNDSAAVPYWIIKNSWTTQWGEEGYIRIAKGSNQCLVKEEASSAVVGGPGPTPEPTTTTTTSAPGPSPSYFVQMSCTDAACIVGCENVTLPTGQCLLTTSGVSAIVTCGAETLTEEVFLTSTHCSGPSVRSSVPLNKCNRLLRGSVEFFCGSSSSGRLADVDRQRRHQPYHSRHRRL
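Purified cruzain at 1.5 nM, pre-incubated 15 min with compound at room temperature in 100 mM sodium acetate pH 5.5, 5 mM DTT, 0.00005% Triton X-100. Reaction started with 2 uM Z-FR-AMC; AMC fluorescence increase over 60 s gives rate.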
MARV entry inh = Marburg virus entry inhibition. Marburg virus pseudotyped entry inhibition, cell reporter; control for the full effect not named in the record; about a third of the inactives were read at about 46 µM. Potency, µM (top dose mostly 37.8 µM), without a hit: top-dose activity change, negative = inhibition, usual class: inhibitors. actives 1.8% (n = 300,000). AID 540276; active = well fitted inhibition curve with a large enough effect; inconclusive = small, poorly fitted or top-dose-only effect, or effect the other way; inactive = flat fitted curve, though single readings scatter; tested in HEK293 cells; about a fifth of its hits are not listed in these tables; also: % is scaled to controls: 0 for no effect and ±100 for the full control effect; luciferase read-out
SARS PLpro yeast = blocks SARS-CoV papain-like protease in a yeast assay. Potency, µM (top dose mostly 32.9 µM), for inactives: top-dose activity, positive = growth rescue. S. cerevisiae expressing SARS-CoV PLpro, growth rescue; control for the full effect not named in the record. actives 0.19% (n = 330,000); active means well fitted rising curve with a large enough effect; inconclusive means small, poorly fitted or top-dose-only effect; inactive means no such curve, though single readings can be large or run the other way; also: 0% is about no effect; nearly all actives have a fitted effect of over 55% in size; growth read by luminescence after 48 h
LASV entry inh = Lassa virus entry inhibition | Lassa virus pseudotype entry inhibition, cell reporter; control for the full effect not named in the record | Potency, µM (titrated, usually from 37.9 µM), inactives show at the top dose activity change, negative = inhibition, most hits filed as inhibitors | actives 1.2% (n = 300,000) | AID 540256; active means well fitted inhibition curve with a large enough effect; inconclusive means small, poorly fitted or top-dose-only effect, or effect the other way; inactive means flat fitted curve, though single readings scatter; tested in HEK293 cells; also: % is scaled to controls: 0 for no effect and ±100 for the full control effect; nearly all actives have a fitted effect of over 50% in size; luciferase read-out
Cruzain inh Det = inhibitors of Trypanosoma cruzi cruzain with detergent. P25779. purified cruzain, Z-FR-AMC fluorescence, 0.01% Triton. Potency, µM, without a hit: max response, negative = inhibition, most hits filed as inhibitors. actives 0.43% (n = 200,000). AID 1478;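 also: plate controls were neutral wells for no effect and buffer without enzyme for full effect; nearly all actives have a fitted effect of over 40% in size; top concentration of the series not given in the record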
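Steps: dispense cruzain (1.5 nM final) in acetate buffer pH 5.5 with DTT and 0.01% Triton X-100; pin-transfer compounds; incubate 15 min RT; add Z-FR-AMC (2 uM final); read fluorescence every 30 s, using the 60 s intensity change.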
RE007 growth inh = less growth of the S. pombe RE007 Vpr strain; S. pombe RE007 Vpr strain, BacTiter-Glo ATP luminescence, 24 h; control for the full effect not named in the record; Potency, µM (doses to about 92.2 µM), for the others: top-dose activity change, negative = less growth; actives 0.21% (n = 360,000); active = well fitted falling curve with a large enough effect; inconclusive = small, poorly fitted or top-dose-only effect; inactive = no such curve, though single readings can be large or run the other way;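 also: % is scaled to controls: 0 for no effect and ±100 for the full control effect; nearly all actives have a fitted effect of over 50% in size; the assay follows cell death caused by Vpr and the record does not say whether a fall means rescue or toxicity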
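Fission yeast RE007 carrying one integrated HIV-1 vpr copy, seeded at OD 0.01 in PMG+AL medium with 23 nL pinned compound. Grown 24 h at 30 degrees; viability read by BacTiter-Glo luminescence after 5 min.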
An asterisk follows results filed as active; ? = inconclusive; · = not tested or not shown; & = joins results of further samples; [ ] = another dose, or the depositor's remark. Unless noted, calls follow the shape of the dose curve; as a rule, active = well fitted curve in the direction sought with a large enough effect; inconclusive = small, poorly fitted or top-dose-only effect, or another doubt; inactive = no such curve, though single readings can be large; an effect the other way counts as inactive or inconclusive. Potency is read from the fitted curve at half-maximal effect.

SMILES | NS1 inh | StopGo reporter | Cruzain noTriton | MARV entry inh | SARS PLpro yeast | LASV entry inh | Cruzain inh Det | RE007 growth inh
O=C(c1cccs1)N(Cc1ccco1)C1CCS(=O)(=O)C1 (stereo not given) | -4% | 7% | 2% | 25% | 7% | -1% | 1.2% | 18%
CCOC(=O)c1cccnc1NC(=O)c1ccccc1 | -5% | 1% | -4% | 14%[46.1 µM] | 15% | ? | 2.0% | -6%
Cc1[nH]c(C)c(S(=O)(=O)N2CCCCC2)c1C(=O)N1CCCC1 | 2% | -2% | · | · | 4% | · | · | 2%
COC(=O)c1ccc(-c2cc(CC3(C(=O)OC)CCN(C(=O)OC(C)(C)C)CC3)on2)cc1 | 14% | ? | · | · | 1% | · | · | -7%
Cc1nncn1-c1ccc(C(=O)Nc2cc(F)ccc2F)cc1 | · | -13% | -3% | · | · | 14%[46.1 µM] | 0.8% | ·
COc1ccc(OC)c(NC(=O)NNS(=O)(=O)c2ccc(C)cc2C)c1 | 6% | -11% | · | -8% | 2% | 0% | · | 4%
CCC(=O)c1ccc(OC)c(OC)c1 | 2% | -8% | · | · | -1% | · | · | -13%
O=C(Cn1cccc1C(=O)c1ccccc1)NCc1ccc2c(c1)OCO2 | -5% | 45%[activator] | -12% | 6% | 2% | ? | 6.5% | 8%
O=C(NCc1ccc(Cl)cc1)C1=Cc2cc(Br)ccc2OC1 | · | 6% | 3% | · | · | 0%[46.1 µM] | -7.5% | ·
Cc1cc(C)c(OCCN2C(=O)NC(C)(C)C2=O)c(Cl)c1 | ? | -14% | 5% | -6% | -2% | 16% | -2.0% | 6%[3.69 µM]
O=C(CCn1c(=O)sc2ccccc21)Nc1nc2ccccc2s1 | -4% | -15% | 3% | · | -18% | · | -8.0% | 0%
O=C(NC(c1ccccc1)c1ccccc1)C1CCCO1 (stereo not given) | · | 2% | · | -21%[46.1 µM] | -1% | -26% | · | -10%
CN(CC(=O)Nc1cccc(F)c1)C(=O)c1cc(S(=O)(=O)N2CCCCC2)ccc1N1CCOCC1 | · | 15% | · | -14%[46.1 µM] | -3% | -4% | · | 19%
CCC(=O)N1CCCc2cc(S(=O)(=O)N3CCC(C(=O)Nc4cccc(Cl)c4)CC3)ccc21 | · | -23% | -29% | · | · | -28%[46.1 µM] | -1.1% | ·
CC(=O)CC(=O)NC1C2CC3CC(C2)CC1C3 (stereo not given) | 0% | 3% | 4% | -18%[46.1 µM] | -6% | -3% | -2.8% | 16%
COc1ccc(CNC(=O)C(Cc2ccccc2)n2cccc2)cc1 (stereo not given) | -1% | 5% | · | -5% | 1% | ? | · | 14%
CCC(=O)Oc1c(S(=O)(=O)c2ccc(C)cc2)c(C)nn1C(C)(C)C | -49% | 0% | 0% | 26% | -4% | ? | 1.2% | -9%
O=C(NC1CCCCCCC1)C1CCN(S(=O)(=O)N2CCC3(CC2)OCCO3)CC1 | -7% | -3% | 12% | 2% | -7% | 1% | 4.5% | 4%
O=C(NCC(=O)N1CCN(C(c2ccccc2)c2ccccc2)CC1)c1ccccc1F | ? | -23% | · | -28%[46.1 µM] | 20% | -25%[46.1 µM] | · | -11%
CCCCNC(=O)CCn1c(=O)c2cccn2c2ccc(F)cc21 | 0% | -18%&-2% | 17% | · | 1% | 0%[46.1 µM] | -3.5% | 0%
CCCc1cc(C(=O)Nc2cccc(Cl)c2C)no1 | -19% | 24% | · | -2%[46.1 µM] | -7% | -24% | · | -3%
O=C(Nc1nc2ccc(S(=O)(=O)N3CCOCC3)cc2s1)c1cccs1 | -1% | 45%[activator] | · | ? | -1% | 3%[46.1 µM] | · | 45%
COc1cc(O)c(C(CC(=O)N2CCCC2)c2ccc(N(C)C)cc2)c(OC)c1 (stereo not given) | -17% | -4% | · | · | 2% | · | · | -14%
CCS(=O)(=O)N1CCC(NC(=O)C(Cc2cc(OC)ccc2OC)NC(C)=O)CC1 (stereo not given) | 15% | -13% | · | 3%[46.1 µM] | -1% | 0%[46.1 µM] | · | -13%

Seven compounds from above, ordered by length of the SMILES, lowest first:
SMILES | NS1 inh | StopGo reporter | Cruzain noTriton | MARV entry inh | SARS PLpro yeast | LASV entry inh | Cruzain inh Det | RE007 growth inh
CC(=O)CC(=O)NC1C2CC3CC(C2)CC1C3 (stereo not given) | 0% | 3% | 4% | -18%[46.1 µM] | -6% | -3% | -2.8% | 16%
CCCCNC(=O)CCn1c(=O)c2cccn2c2ccc(F)cc21 | 0% | -18%&-2% | 17% | · | 1% | 0%[46.1 µM] | -3.5% | 0%
O=C(Nc1nc2ccc(S(=O)(=O)N3CCOCC3)cc2s1)c1cccs1 | -1% | 45%[activator] | · | ? | -1% | 3%[46.1 µM] | · | 45%
CCC(=O)Oc1c(S(=O)(=O)c2ccc(C)cc2)c(C)nn1C(C)(C)C | -49% | 0% | 0% | 26% | -4% | ? | 1.2% | -9%
O=C(NC1CCCCCCC1)C1CCN(S(=O)(=O)N2CCC3(CC2)OCCO3)CC1 | -7% | -3% | 12% | 2% | -7% | 1% | 4.5% | 4%
CCC(=O)N1CCCc2cc(S(=O)(=O)N3CCC(C(=O)Nc4cccc(Cl)c4)CC3)ccc21 | · | -23% | -29% | · | · | -28%[46.1 µM] | -1.1% | ·
CN(CC(=O)Nc1cccc(F)c1)C(=O)c1cc(S(=O)(=O)N2CCCCC2)ccc1N1CCOCC1 | · | 15% | · | -14%[46.1 µM] | -3% | -4% | · | 19%

Additional structures follow.
SMILES | NS1 inh | StopGo reporter | Cruzain noTriton | MARV entry inh | SARS PLpro yeast | LASV entry inh | Cruzain inh Det | RE007 growth inh
CC(C)NC(=O)NC(=O)COC(=O)C1CCCN1C(=O)c1cccs1 (stereo not given) | -6% | ? | -8% | -5% | 6% | 1% | 0.7% | 5%
CCCSc1n[nH]c(NC(C)=O)n1 | -3% | 9% | -9% | 4% | 6% | · | 2.1% | 7%
N#CC1=C(Nc2ccccc2)SC=C(c2ccccc2)N=C1N1CCOCC1 | 6% | -8% | -3% | ? | 10% | 4% | -6.6% | 0%
Cn1c(SCC(=O)c2ccc(-c3ccccc3)cc2)nnc1-c1ccco1 | -33% | -2% | ? | -28% | -11% | -2% | -7.9% | -5%
Cn1c(=O)c2c(nc(NCc3ccco3)n2C)n(C)c1=O | -9% | · | -4% | 15%&15% | -2% | 17% | 6.4% | -8%
CCNC(=O)c1ccc(NS(=O)(=O)c2ccccc2)cc1 | 1% | · | -6% | 1% | 2% | ? | 3.7% | 1%
O=C(CSc1nc(-c2cccs2)nc2cc(=O)[nH]n12)Nc1ccc(F)cc1 | · | ? | -2% | · | · | 6%[46.1 µM] | -5.6% | ·
COc1cc2[nH]c(=O)n(Cc3ccc(C(=O)NCCCN4CCC(C)CC4)cc3)c(=O)c2cc1OC | -1% | 38%[activator] | -3% | ? | -2% | -28% | -0.5% | -1%
COc1ccc(-c2nnc(-c3ccc4ccccc4c3)o2)cc1 | · | 32%[activator] | · | ? | · | ? | · | -1%
CC(=O)N/C(=C\c1ccc2c(c1)OCO2)C(=O)NC(C(=O)O)c1ccccc1 (stereo not given) | 1% | -14% | · | 3%[46.1 µM] | -1% | 20% | · | 7%
CSc1nn(Cc2cccc(Cl)c2)c(N(C(C)=O)C(C)=O)c1S(=O)(=O)c1ccccc1 | · | 0% | 10% | -23%[46.1 µM] | · | ? | -5.9% | ·
COC(=O)CCCN1C(=O)c2cccc3cccc(c23)C1=O | -33% | 39%[activator] | · | ? | -3% | 29% | · | -9%
CC(NC(=O)/C=C/c1ccco1)c1nc2ccccc2n1Cc1ccccc1F (stereo not given) | 11% | -10% | 2% | -8% | 1% | -10% | -5.2% | -2%
CCOCC(=O)N1CCN(Cc2ccc3c(c2)OCO3)CC1 | 10% | 5% | · | · | 2% | · | · | -8%
Cc1nc(-c2cccc(F)c2)sc1CCNC(=O)c1c(F)cccc1Cl | · | 5% | -18% | · | · | 2%[46.1 µM] | -8.7% | ·
O=C(c1cc(F)ccc1F)C1CCCN(Cc2cccc(Cl)c2)C1 (stereo not given) | 1% | -9% | · | -13% | 0% | -14% | · | -3%
Cc1cccc(Cn2c(C)nc3c(N)c(C)c(C)cc32)c1 | · | -24% | · | -14%[46.1 µM] | 3% | -7% | · | -6%
Cc1ccsc1/C=N/Nc1ccc(F)cc1F | -7% | 46%[activator] | · | ? | -4% | 17%[46.1 µM] | · | 8%
OC(CNCc1ccccc1F)(c1ccc(F)cc1)c1ccc(F)cc1 | -2% | -9% | · | -11%[46.1 µM] | 8% | 3% | · | 4%
COc1ccc(N(CC(=O)NCC2CCCO2)S(=O)(=O)c2c(C)noc2C)cc1 (stereo not given) | -10% | 12% | 2% | 13% | 4% | -11% | 8.6% | 7%
Cc1nc2nc(SCc3ccccc3)[nH]n2c(=O)c1C | 0% | 7% | · | · | -5% | · | · | 4%
Cc1ccc2[nH]c(C)c(/C=C/c3cc[n+](C)cc3)c2c1 | 3% | -26% | · | 8.9µM* | -2% | 3.2µM* | · | ?
COc1cc(CNc2cc(C)ccc2C)cc(OC)c1OC | -4% | · | -1% | -11% | -6% | 0% | -3.9% | 4%
COc1ccc(C)cc1NC(=O)c1cccn(Cc2ccccc2Cl)c1=O | · | -8% | -9% | · | · | ? | -1.1% | ·
C=CCN1C(=O)S/C(=C\c2ccc3c(c2)n(C)c(=O)n3C)C1=O | 0% | 10% | 6% | -21% | 4% | ? | -6.9% | -11%
COc1ccc(/C=N/NC(=O)c2ccc(Cl)cc2Cl)cc1COC(C)=O | -34% | -23% | -4% | ? | 5% | ? | -9.6% | -25%
O=C(NCCCn1ccnc1)c1ccc(Br)cc1 | 0% | -17% | · | -2%[46.1 µM] | -1% | 26%[46.1 µM] | · | 6%
COC(=O)c1cccc(NC(=O)c2cc(OC)c(OC)c(OC)c2Br)c1 | 7% | ? | -9% | -29%[46.1 µM] | -17% | ? | -2.6% | 20%
